Assay outcomes as filed in PubChem BioAssay.
Tgondii IFNg = T. gondii growth inhibition with IFN-gamma, primary screen, cell-based; Toxoplasma gondii growth in IFN-gamma-treated host cells; stronger effect = lower value; reference of the scale not given here; activity change, negative = inhibition, %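 (about 20 µM by stock and volumes)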; hit rate 3.8% among 69,000; AID 1259416, 2018;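 active means below -70%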;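 further: host cells are HeLa cells infected with Toxoplasma gondii; parasite growth read as luciferase light; one replicate is shown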
* marks the source's active call; other numbers are inactive results; & = joins results of further samples. The list is partial, so the mix of outcomes need not match the whole.

cpd	smiles	Tgondii IFNg
1	Cc1ccc(Sc2ncccc2-n2c(C)ccc2C)cc1	-33
2	O=C(CN1CCCC1Cn1cccn1)Nc1nc2c(s1)CCCC2 (stereo not drawn)	-78*
3	Nc1nccc(/C=C/c2c(F)cccc2Cl)n1	-74*
4	COc1ccccc1N1CCN(S(=O)(=O)c2cnn(C)c2)C(C)C1=O (stereo not drawn)	10
5	C[C@@H]1CN([C@H](C)CO)C(=O)c2cc(NC(=O)c3ccncc3)ccc2O[C@@H](C)CCCCO[C@H]1CN(C)Cc1ccc(Cl)c(Cl)c1	24
6	O=C(N1CCCC1)C12CC3CC(C1)CC(C(=O)N1CCCC1)(C3)C2	-10
7	CCOc1ccccc1NC(=O)c1c(O)c2ccccc2[nH]c1=O	105
8	CCOc1ccc(N2C(=O)CSC23CCCCC3)cc1	-9
9	Cc1cc(-c2ccccc2)nc2oc(C(=O)c3ccc(Cl)cc3)c(N)c12	-5
10	CCN(CC)C(=O)C1Cn2ccnc2C2(CCN(C(=O)c3cccs3)CC2)O1 (stereo not drawn)	9
11	Cc1c(-c2ccccc2)cn2c1-c1ccc(C)n1CC2	9
12	COc1ccccc1CNC(=O)c1cc2cc(S(=O)(=O)N(C)C)ccc2n1Cc1ccncc1	1
13	CCOc1ccc(C2c3[nH]c4ccccc4c3CCN2C(=O)c2ccncc2)cc1 (stereo not drawn)	-4
14	Fc1ccc2c(CCNCc3cccc(OCC(F)(F)C(F)F)c3)c[nH]c2c1	11
15	Cc1c(C(=O)N2C[C@H](C(=O)O)[C@@H](c3ccc(F)cc3)C2)cnn1C	-11
16	CC(=O)N1CCC2C(C[C@@H](CN(C)C)N2c2nccs2)C1 (stereo partly drawn)	-42
17	CNC(=O)C1CC2CN(C(=O)Nc3cccc(OC)c3)CC1O2 (stereo not drawn)	-12
18	N#C[C@@H]1[C@H](c2ccccc2)[C@H](CO)N1C(=O)c1cc(Cl)cc(Cl)c1	-28
19	CCC(=O)N1[C@H](CO)[C@@H](c2ccccc2)[C@H]1CN(C)C(=O)CN1CCOCC1	0
20	CC(=O)Nc1ccc(C2CC(=O)Nc3c2c(C)nn3Cc2cccc(C)c2)cc1 (stereo not drawn)	5
21	Cc1ccc2[nH]c(CCCNC(=O)c3ccc(-n4cnnc4)cc3)nc2c1C	3
22	Cc1nc(-c2cccnc2)nc(N2CCCN(c3ccc(C(F)(F)F)cn3)CC2)c1Cl	-98*
23	Cc1nc(C(C)C)ncc1C(=O)N1CCCC(c2[nH]ncc2-c2ccccc2)C1 (stereo not drawn)	0
24	CC(CN(C)Cc1cc(F)ccc1O)N1CCOCC1 (stereo not drawn)	8
25	CC1NC(=O)COC12CCN(C(=O)c1cccnc1)CC2 (stereo not drawn)	-7
26	CC(=O)c1ccc(OCc2ccccc2)c(C)c1OC(=O)c1cccs1	-26
27	CCC1=N[C@@]2(CC[C@@H]3CN(C(=O)NCC4CCCCC4)C[C@H]32)C(=O)N1CC	22
28	Cn1nnc2c1CCN(S(C)(=O)=O)C2COCC1CC1 (stereo not drawn)	6
29	CCCc1ccc(C(=O)N2CCCn3nnc(Cn4ccnc4)c3C2)cc1	4
30	CCOC(=O)CN(C(=O)COc1nc(C)cc(C)c1C#N)c1ccccc1	26

Shown as labelled records: 4 of the compounds above.
[15] Cc1c(C(=O)N2C[C@H](C(=O)O)[C@@H](c3ccc(F)cc3)C2)cnn1C
  Tgondii IFNg = -11

[6] O=C(N1CCCC1)C12CC3CC(C1)CC(C(=O)N1CCCC1)(C3)C2
  Tgondii IFNg = -10

[1] Cc1ccc(Sc2ncccc2-n2c(C)ccc2C)cc1
  Tgondii IFNg = -33

[14] Fc1ccc2c(CCNCc3cccc(OCC(F)(F)C(F)F)c3)c[nH]c2c1
  Tgondii IFNg = 11

The list goes on.
cpd	smiles	Tgondii IFNg
31	Cc1ccccc1-c1nc2cnccn2c1NCCC(=O)N1CCSCC1	90
32	Cn1cnnc1-c1cccc(NS(=O)(=O)c2ccc3[nH]c(=O)sc3c2)c1	19
33	COc1ccc(NC(=S)NCCSc2ccc(Cl)cc2)cc1	-42
34	CC(=O)N1CCc2cc(NCc3cn(CCN4CCOCC4)c4ccccc34)ccc21	-6
35	COc1ccc(-n2ccnc2CN2CCN(C(=O)c3ccccc3)CC2)cc1	-1
36	Cn1c(SCc2ccccc2)nnc1C1CCCN(C(=O)c2ccc3c(c2)OCO3)C1 (stereo not drawn)	-20
37	CSc1cc2c(cc1C(F)(F)F)N(C(=O)Nc1cccnc1)CC2	-2&-2
38	CN(Cc1cc(F)ccc1O)Cc1cccc2cnccc12	3
39	COc1cc(C2N(C(C)=O)CCN2S(=O)(=O)c2ccc(C)cc2)ccc1O (stereo not drawn)	-3
40	CNC[C@H]1OCCCC[C@@H](C)Oc2ccc(NS(=O)(=O)c3ccc(F)cc3)cc2C(=O)N([C@@H](C)CO)C[C@@H]1C	-16
41	Cc1ccc(OCC(=O)Nc2cccnc2)c(-n2nc3ccccc3n2)c1	-29
42	N#Cc1cccc(-c2ccc([C@@H]3[C@@H](CO)N4CCCCN(Cc5ccccc5F)C[C@H]34)cc2)c1	7
43	Fc1cccnc1OCC12CCCOC1CCN(c1ncccn1)C2 (stereo not drawn)	8
44	COc1cc(C(=O)N2CCC(O)(CN(C)C)C2)ccn1 (stereo not drawn)	-5
45	N#Cc1ccc(-c2ccc3c(c2)[C@H]2[C@H](CCN2C(=O)C2CCCCC2)[C@H](CO)N3)cc1	-31
46	N#Cc1c(-c2ccccc2)cc(-c2ccccc2)nc1N1CCCCC1	181
47	CO[C@H]1CN(C)C(=O)c2ccc(NS(=O)(=O)c3c(C)noc3C)cc2OC[C@H](C)NC[C@H]1C	95
48	c1ccc(CCNc2nc(-c3nnc(-c4ccccc4)o3)nc3ccccc23)cc1	-64
49	Cc1ccccc1-c1nc(CN2CCN3CCNC(=O)C3C2)c(C)o1 (stereo not drawn)	-5
50	CC(C)(C)[S@@](=O)N1Cc2cc(C(=O)N3CCOCC3)nc(-c3cccc(-c4ccc(C#N)cc4)c3)c2[C@H]1CCO	73
51	CSc1sc(C(=O)Nc2cc(C(F)(F)F)cc(C(F)(F)F)c2)c2c1C=CCC2	-55
52	CCN(C)C(=O)c1ccc2ccc(N(C)Cc3ccc(OC)cc3)n2c1	-49
53	CC(C)NC(=O)N1CCC(c2nnc3ccc(C(=O)CC4CCOCC4)cn23)C1 (stereo not drawn)	-40
54	COc1cccc(-n2c(SCC(=O)O)nnc2C2CCOCC2)c1	-5
55	N#Cc1ccc(-c2ccc([C@@H]3[C@@H]4CN(S(=O)(=O)Cc5ccccc5)C[C@H]3N4)cc2)cc1	-71*
56	CN1CCC(Cc2noc(-c3cccnc3N3CCOCC3)n2)CC1	8
57	CCN1c2cc(C)ccc2-n2cccc2C12CCN(C(=O)NC13CC4CC(CC(C4)C1)C3)CC2	88
58	Cc1cc(C)n(C)c(=O)c1C(=O)NCc1ccc(-c2ccccn2)s1	66
59	CCc1noc(CCC(=O)N2CC(C(=O)N3CCN(c4ccccc4)CC3)C2)n1	-5
60	CN1CCN(CCc2ccc(Cl)c(Cl)c2)CC1	6&1

Another view of some results above.
44	COc1cc(C(=O)N2CCC(O)(CN(C)C)C2)ccn1 (stereo not drawn)
  Tgondii IFNg: -5
45	N#Cc1ccc(-c2ccc3c(c2)[C@H]2[C@H](CCN2C(=O)C2CCCCC2)[C@H](CO)N3)cc1
  Tgondii IFNg: -31
46	N#Cc1c(-c2ccccc2)cc(-c2ccccc2)nc1N1CCCCC1
  Tgondii IFNg: 181
47	CO[C@H]1CN(C)C(=O)c2ccc(NS(=O)(=O)c3c(C)noc3C)cc2OC[C@H](C)NC[C@H]1C
  Tgondii IFNg: 95

Next part.
cpd	smiles	Tgondii IFNg
61	CCc1nc(C)sc1CNC1CCCNC1 (stereo not drawn)	1
62	CC(=O)c1ccc(N2CCCC(CO)(CCc3ccccc3)C2)nc1 (stereo not drawn)	3
63	CCOC(=O)NCC(Cc1ccc(OCCc2nc(-c3ccccc3)oc2C)cc1)N/C(C)=C/C(=O)c1ccc(C(F)(F)F)cc1 (stereo not drawn)	-65
64	CCOc1ccccc1NC(=O)c1cnccn1	-46
65	CN(Cc1cc(C(C)(C)C)n[nH]1)C(=O)COc1cccnc1	-46
66	COc1ccc(S(=O)(=O)Nc2cncc(C(=O)NCc3ccccc3)c2)cc1	2
67	CC(C)c1nccn1-c1ccc(-c2ccn[nH]2)cc1	4
68	O=C(Cn1ncc2c(N3CCCCC3)ncnc21)N1CCN(c2cccc(C(F)(F)F)c2)CC1	-69
69	COc1ccc(C[C@H]2CN(C(=O)c3ccn(C)n3)CC[C@@H]2OC)cc1	0
70	CCN1C(=O)CCc2cc(NS(=O)(=O)c3c(C)noc3C)ccc21	-18
71	O=C1CC(c2cccc(-n3cccn3)c2)c2cnn(Cc3cccnc3)c2N1 (stereo not drawn)	-6
72	CN1CCCC2(CCN(C(=O)c3cn4c5c(cccc5c3=O)CC4)C2)C1=O (stereo not drawn)	-3
73	O=S(=O)(c1ccc(Cl)cc1)N1CCc2nc(-c3ccccc3)sc2C1	19
74	O=C(c1cc2cccnc2n(Cc2ccc(Cl)cc2)c1=O)N1CCN(c2ccccc2)CC1	-4
75	O=C(CN1C(=O)CCc2cc(S(=O)(=O)N3CCOCC3)ccc21)Nc1cccc(-c2ccno2)c1	-13
76	C[C@@H]1CC=CCCNC(=O)[C@@H](Cc2ccccc2)N(C)C(=O)c2ccccc2O1 (mixture of isomers)	-1
77	COc1cccc(-c2nc3c(s2)CN(C(=O)Nc2ccc(OC)c(OC)c2)CC3)c1	19
78	Cc1nc(C(F)(F)F)ccc1NC(=O)C(F)(F)Sc1ccccc1	44
79	CC(C)(C)c1cc(C(=O)/C=c2/[nH]c(=O)/c(=C/c3ccc(Cl)cc3)s2)no1	22
80	Cn1c(=O)[nH]c(=O)c2c1nc(NCc1ccco1)n2CCCc1ccccc1	-51
81	COc1ccc(CCN2CC(C(=O)O)CC2=O)cc1 (stereo not drawn)	68
82	COc1ccccc1N1CC(c2cc(=O)[nH]c(NCc3ccc(F)cc3)n2)CC1=O (stereo not drawn)	-3
83	C=CCNC(=O)c1ccc(-c2cc(OC)ccc2F)o1	7
84	COc1ccccc1-c1nc(Cn2nnc(-c3nc(-c4ccc(C)cc4)no3)c2C)c(C)o1	3
85	Cc1c(N(C)CS(=O)(=O)O)c(=O)n(-c2ccccc2)n1C	-7
86	Cc1ccc(/C=C2\C(=O)C3(C)CCC2C3(C)C)cc1 (stereo not drawn)	9
87	CCc1nc(C)c(C(=O)N(C)Cc2cc(C(C)(C)C)n[nH]2)o1	-5
88	Cc1c(CN(C)Cc2c(-c3ccccc3)nc3ccccn23)cnn1C	13
89	O=C1NCC2(CCCN(C(=O)c3ccc(-n4cnnc4)cc3)CC2)O1 (stereo not drawn)	-2
90	CCCc1cnc(-c2ccc(OC)cc2C)nc1	152
91	O=C(Cc1cccnc1)N1CC(=O)N2[C@H](CO)[C@H](c3ccc(C#CC4CCCCC4)cc3)[C@@H]2C1	-42
92	O=C(NCC(CO)Cc1cccs1)c1c(O)cccc1O (stereo not drawn)	5
93	CCC(=O)N1[C@H](CO)[C@@H]2c3ccccc3N(S(=O)(=O)c3ccc(F)cc3)C[C@@H]21	-10
94	COc1ccccc1C#Cc1ccc2c(c1)[C@H]1[C@H](CCN1S(=O)(=O)c1cn(C)cn1)[C@@H](CO)N2	-14
95	COc1ccc(S(=O)(=O)Nc2cccnc2)cc1C(=O)N1CCCCCC1	10
96	Cc1ccccc1S(=O)(=O)N1C[C@H](O)COC[C@H]2O[C@H](CC(=O)N3CCCCC3)CC[C@@H]21	-33
97	O=C1COC2(CCN(C(=O)Cc3ccsc3)CC2)CN1	3
98	COc1ccc(-n2c(=O)c(C(=O)NCc3ccc(F)cc3F)c(O)c3cccnc32)cc1	92
99	O=C(CCCn1cnnn1)N1CCc2onc(-c3cccc(F)c3)c2C1	-6
100	Cc1cnc(SCCN2CCOCC2)nc1C1CCCN(C(=O)c2cc(=O)c3ccccc3o2)C1 (stereo not drawn)	-16
101	COCC1CC2(CCN(Cc3nccs3)CC2)CN1c1ncccn1 (stereo not drawn)	1
102	CN(C)C(=O)COCC12CCCOC1CCN(S(=O)(=O)C1CC1)C2 (stereo not drawn)	3
103	CCOC(=O)C1CCN(Cc2c[nH]c3ccccc23)CC1	119
104	CCOC(=O)c1cccc(NC(=O)c2nc(Nc3ccc(C)cc3)c3ccccc3n2)c1	57
105	CN(C)C(=O)C1OC2(CCN(C(N)=O)CC2)c2ccccc21 (stereo not drawn)	-12
106	CCN(Cc1ccncc1)C(=O)CCC(=O)Nc1ccc(F)c(Cl)c1	10
107	O=C(NCc1ccco1)c1nc(Nc2ccccc2)c2ccccc2n1	-16
108	c1ccc2[nH]c(N3CCN(Cc4cc5n(n4)CCNC5)CC3)nc2c1	48
109	COc1cc(NCc2ccccc2-n2ccnc2C)ncn1	5
110	CCC(CNC(=O)c1cc(C)sc1NC(=O)C(C)(C)C)N1CCOCC1 (stereo not drawn)	0
111	COc1ccc(-c2c3c(=O)n(C)c(=O)n(C)c3cn2C2CCCCC2)cc1	18
112	COc1ccccc1CN1CC[C@H]2[C@@H](CO[C@H]2CC(=O)NC2CC2)C1	-3
113	O=C(CCC1N=C2c3ccccc3N=C(SCc3ccc(F)cc3)N2C1=O)NC1CCCCC1 (stereo not drawn)	3
114	COc1cc(F)ccc1-c1c(-c2ccccc2)ncn1[C@H]1CCCCNC1=O	-6
115	CCOC(=O)Cn1c(-c2ccc(F)cc2)cc2cccnc21	312
